Source: PubChem (several laboratories)
GALR2 agonist: activates the human galanin receptor 2. O43603. GALR2-expressing cells, agonist activation read-out. activation, %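 (tested at 5 µM)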. hit rate 0.48% among 140,000. AID 803;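 active = above mean plus 3 SD of all compounds, about 5% in these data, not always enough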;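 also: 0% = vehicle buffer wells and 100% = reference agonist at full effect; tested in CHO reporter cells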
INS promoter inh: TRM-6 insulin promoter activity inhibition. TRM-6 cells (human fetal islet line), insulin promoter-eGFP reporter, imaging; reporter expression induced with tamoxifen. inhibition, % at 2 µM. hit rate 0.9% among 130,000. AID 1273;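 active = inhibition above the mean plus 3 SD, with well images judged a real hit on visual review, cut at about 60% in these data, passing the limit was not always enough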
PKD1 inh: blocks activity of human protein kinase D1. Q15139. AID 797. inhibition, %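 (about 10 µM by stock and volumes)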. PKD1 kinase fluorescence polarization assay. hit rate 0.056% among 200,000;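 active = inhibition of 50% or more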;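 also: controls were vehicle for no effect and a reference inhibitor for full effect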
Target sequence (Q15139 whole entry, looked up): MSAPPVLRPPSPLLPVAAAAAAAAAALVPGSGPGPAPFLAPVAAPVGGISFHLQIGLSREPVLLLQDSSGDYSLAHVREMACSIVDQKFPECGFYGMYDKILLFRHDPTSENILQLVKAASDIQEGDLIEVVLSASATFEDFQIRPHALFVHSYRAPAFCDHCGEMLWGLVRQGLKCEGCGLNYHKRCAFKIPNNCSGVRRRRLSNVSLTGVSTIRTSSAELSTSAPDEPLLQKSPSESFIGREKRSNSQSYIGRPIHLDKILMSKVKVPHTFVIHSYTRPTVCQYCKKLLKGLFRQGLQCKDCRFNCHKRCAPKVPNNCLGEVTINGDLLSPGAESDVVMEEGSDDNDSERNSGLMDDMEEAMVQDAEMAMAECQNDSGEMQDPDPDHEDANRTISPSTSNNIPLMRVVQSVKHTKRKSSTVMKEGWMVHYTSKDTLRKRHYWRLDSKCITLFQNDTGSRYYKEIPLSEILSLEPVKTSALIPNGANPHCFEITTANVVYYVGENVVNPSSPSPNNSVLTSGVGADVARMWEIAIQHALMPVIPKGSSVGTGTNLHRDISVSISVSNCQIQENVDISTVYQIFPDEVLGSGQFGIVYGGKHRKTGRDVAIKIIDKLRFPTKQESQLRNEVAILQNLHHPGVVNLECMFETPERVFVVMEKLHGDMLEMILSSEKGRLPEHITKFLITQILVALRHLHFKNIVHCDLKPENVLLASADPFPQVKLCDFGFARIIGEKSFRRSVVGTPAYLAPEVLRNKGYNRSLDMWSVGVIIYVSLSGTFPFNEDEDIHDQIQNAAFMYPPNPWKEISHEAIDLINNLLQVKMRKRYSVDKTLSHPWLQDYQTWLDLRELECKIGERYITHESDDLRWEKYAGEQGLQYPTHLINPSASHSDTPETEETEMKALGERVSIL
HSV replic up: increases HSV replication in cells. HSV replication augmentation in cells, fold increase. hit rate 0.005% among 220,000. maximum fold increase;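 active = peak rise of 1.5-fold or more in the series; tested in PC3 cells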;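 also: first round at 10 µM; read as green reporter fluorescence; hits show the peak of a series up to 25 µM; 1 = signal of infected wells without compound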
RGS16-Gao: regulators of human RGS16-Galphao interaction; O15492+P09471; bead-based flow cytometry RGS16-Galphao binding, fluorescence; actives lie on both sides; binding response (% of control), % at 10 µM; hit rate 0.38% among 220,000;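 active = below 25% or above 175%, edge rows of some plates excepted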;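 also: Galphao activated by GDP with aluminum fluoride before binding; 100% = wells without compound and 0% = beads without RGS; some results beyond the cut were filed as inactive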
INS promoter inh cell count: recorded beside INS promoter inh, whose call it bears; normalized cell count, %; measured here: cell count, toxicity; reference of the scale not given here;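 cells exposed to compound for 48 h; stained nuclei by imaging scaled within each plate; lower means fewer cells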
HSV replic up primary fold: also measured in HSV replic up; calls as there; fold increase; compound at 10 µM; measured here: primary screen fold increase 10 uM; tested in PC3 cells;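 GFP signal in the first replicate; 1 = infected wells without compound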
Active calls of the source: *; i = inactive; . = not tested or not shown.

SMILES	GALR2 agonist	INS promoter inh	INS promoter inh cell count	PKD1 inh	HSV replic up	HSV replic up primary fold	RGS16-Gao
CC(c1ccccc1)n1c(NCCCn2ccnc2)nc2c1c(=O)[nH]c(=O)n2C (stereo not drawn)	-1.4	5.7	102.4	6.9	i	0.9	110.9
Cc1ccnc(NC(=O)c2ccc3c(c2)OCO3)c1	.	-28.6	99.1	-3.0	i	0.97	106.7
COc1ccc(CCNc2c(C)c(C)nc3ncnn23)cc1	-0.7	.	.	-10.4	i	0.71	103.3
COc1cc(CN2CCN(Cc3ccc([N+](=O)[O-])cc3)CC2)c([N+](=O)[O-])cc1OC	.	.	.	-3.4	i	1.08	109.8
CC(C)CCN1CC(O)=C(c2nc(-c3ccc(Cl)cc3)cs2)C1=N	-0.8	-13.3	84.5	-8.0	i	1.01	128.9
CN1/C(=C\C=[N+](C)c2ccccc2)C(C)(C)c2ccccc21	-1.3	-13.3	100.9	-8.6	i	1.09	93.7
Nc1nnnn1/N=C/c1cc(Cl)cc(Cl)c1OCc1ccc(Cl)cc1Cl	0.0	-30.6	102.5	5.2	i	0.85	100.1
COC(=O)c1ccc(Cn2nc(C)cc2C)cc1	-0.6	0.0	100.0	1.9	i	1.06	109.0
COc1cccc(NC(=O)Nc2cc(Cl)ccc2C)c1	.	.	.	-0.9	i	0.86	102.4
COc1ccc(S(=O)(=O)N/N=C(/C)c2ccc(Cl)cc2)cc1	-2.8	-3.3	68.8	-2.3	i	1.13	100.7
Cc1ccc(C(=O)N(Nc2nc3ccccc3s2)C(=O)c2ccc(C)cc2)cc1	-0.9	-62.1	108.9	-3.1	i	1.1	106.0
CCCCNCCOCCOc1ccc(Cl)cc1Br	0.9	-100.0	98.6	-0.5	.	.	94.4
O=c1c2ccc(Cl)cc2nc(-c2ccc([N+](=O)[O-])cc2)n1O	.	-20.0	91.0	-10.0	i	0.92	98.1
CCOC(=O)c1c(NC(=O)CSc2nncn2C)sc(C)c1C	-0.6	10.7	59.9	7.5	.	.	102.9
COc1ccccc1NC(=S)NC1CCCCCC1	-0.3	-11.8	100.6	-1.9	i	1.08	104.8
Cc1ccc(S(=O)(=O)NCCCCCC(=O)Nc2cccc(C)c2)cc1	-0.8	-50.0	135.1	5.1	i	0.91	105.7
CCOC(=O)c1ccc(NC(=S)N2CCCC(C(=O)OCC)C2)cc1 (stereo not drawn)	.	26.3	83.3	0.4	i	0.96	95.8
Cc1cccc(CSc2ccc3nnc(-c4cccs4)n3n2)c1	0.6	.	.	-6.0	i	1.2	95.6
Cc1cc(C(=O)CSc2nc3ccccc3[nH]2)c(C)n1C	-0.5	41.4	69.3	-0.2	i	1.01	97.2
CSc1ccccc1C(=O)Nc1cccc([N+](=O)[O-])c1	.	20.0	149.3	-10.2	i	0.99	102.3
CC(C)NC(=O)CN(Cc1ccccc1)S(=O)(=O)c1ccccc1	-0.3	-77.4	134.7	-5.3	i	1.04	104.5
CC(C)(C)c1ccc(OCC(O)CS(=O)(=O)c2ccccn2)cc1 (stereo not drawn)	-2.0	35.7	92.8	-4.0	i	0.82	101.8
COc1ccc(S(=O)(=O)Nc2ccc3c(c2)CCC3)cc1	.	.	.	-0.6	i	1.04	97.9
COc1ccc(NC(=O)Nc2cc(F)ccc2C)cc1	.	25.0	142.0	-3.1	i	0.95	100.3
O=C1C=C(NCc2ccco2)C2(CCCCC2)O1	-2.6	58.6	75.7	-9.1	i	0.95	101.6
Nn1c(-c2ccccc2)nc2ccccc2c1=O	.	28.2	98.8	7.4	i	0.9	110.3
O=C(Nc1ncn[nH]1)c1ccc(Cl)c(S(=O)(=O)Nc2ccc(Cl)cc2)c1	-0.7	-10.3	103.1	2.0	i	0.98	106.3
O=C(C(NS(=O)(=O)c1cccs1)c1ccccc1)N1CCN(c2ccccc2F)CC1 (stereo not drawn)	-1.2	60.7	30.4	-4.6	i	0.99	101.7
Cc1[nH]c(=O)[nH]c(=O)c1CSc1nnc(CCCCCNC(=O)OC(C)(C)C)o1	-0.8	-3.0	132.7	2.8	i	0.85	95.5
CCOC(=O)n1c(=O)n(Cc2ccccc2)c2ccccc21	-2.3	-34.4	163.0	-5.3	i	0.88	102.9
Cc1cccc(C(=O)OCC(=O)NCCCc2ccccc2)c1	.	.	.	-1.5	i	1.11	101.2
COc1ccccc1OCCCCNC(C)(C)C	-1.4	.	.	-9.5	i	1.11	101.6
COc1cccc(/C=C2\SC(=S)N(NC(=O)c3ccncc3)C2=O)c1	.	28.6	94.5	1.0	i	0.91	92.1
CC/C(=C/c1sc2ccccc2[n+]1CC)SC	-0.9	0.0	101.5	1.9	i	0.99	107.9
COc1ccc(N2CCC(CNC(=S)Nc3c(C)cc(C)cc3C)C2)cc1 (stereo not drawn)	.	.	.	.	i	0.94	100.2
CCCCCCOC(=O)c1ccc(N)cc1	.	.	.	.	i	0.96	102.6
COC(=O)CCC(=O)COc1ccccc1C#N	-1.9	-27.8	150.8	-3.2	i	0.93	106.5
O=C(CCc1nc2ccccc2[nH]1)N1CCc2ccccc2C1	-0.7	-30.0	64.6	-8.9	.	.	136.1
COc1cc2c(cc1NS(=O)(=O)N1CCCC1)oc1ccccc12	-3.1	-78.6	114.1	0.3	i	1.06	101.3
CCOc1ccc(-c2cc(N)n(S(=O)(=O)c3ccc(OC)cc3)n2)cc1	-1.1	.	.	4.5	i	0.81	105.2
CCCNC(=O)C1CCN(S(=O)(=O)c2cccc3nonc23)CC1	.	31.2	75.1	-3.4	i	0.97	98.4
Cc1cc(C)c2cc(CN(CCN3CCCC3)C(=O)Nc3ccc(F)cc3)c(=O)[nH]c2c1	-4.9	.	.	10.8	i	0.98	108.2
CCc1nc(SCC(=O)O)c(C#N)c2c1CCCC2	.	.	.	-0.8	i	0.96	109.0
O=C(NCCc1c[nH]c2ccccc12)C(=O)NCC(c1ccco1)N1CCN(c2ccc(F)cc2)CC1 (stereo not drawn)	-1.4	6.5	137.0	-9.3	i	0.86	92.7
COc1ccc2c(c1)CCc1c(C(=O)NCc3ccco3)noc1-2	-0.7	-50.0	141.4	-7.1	i	1.15	102.2
CCOc1cc(C)c(S(=O)(=O)NC2CCCCC2)cc1C	-0.7	-68.0	147.6	-8.4	i	0.92	110.7
COCCN1Cc2cc3cc(C)ccc3nc2SC1=Nc1cccc(OC)c1	.	0.0	61.1	3.5	i	0.99	102.4
O=C(NN1C(=O)c2ccccc2NC1c1ccccc1OCc1ccccc1)c1ccncc1 (stereo not drawn)	-1.9	63.4	87.0	-9.5	i	0.91	98.8

Full records as entered above. Screens in order: GALR2 agonist, INS promoter inh, INS promoter inh cell count, PKD1 inh, HSV replic up, HSV replic up primary fold, RGS16-Gao
COC(=O)CCC(=O)COc1ccccc1C#N reads -1.9, -27.8, 150.8, -3.2, i, 0.93, 106.5
O=C(NN1C(=O)c2ccccc2NC1c1ccccc1OCc1ccccc1)c1ccncc1 (stereo not drawn) reads -1.9, 63.4, 87.0, -9.5, i, 0.91, 98.8
CCCNC(=O)C1CCN(S(=O)(=O)c2cccc3nonc23)CC1 reads ., 31.2, 75.1, -3.4, i, 0.97, 98.4

Additional results
SMILES	GALR2 agonist	INS promoter inh	INS promoter inh cell count	PKD1 inh	HSV replic up	HSV replic up primary fold	RGS16-Gao
Nc1nc(Sc2ccc(C(F)(F)F)cc2[N+](=O)[O-])n[nH]1	-1.3	-25.7	102.8	11.9	i	0.99	89.9
CC(C)OCCCN(CC(O)c1ccccc1)CC(O)c1ccccc1 (stereo not drawn)	-0.6	-28.1	114.5	8.9	i	0.89	102.5
Cn1c(N)c(C(=O)COC(=O)CNS(=O)(=O)c2cccc(Cl)c2)c(=O)n(C)c1=O	-0.8	35.1	137.1	-3.0	i	0.89	105.6
Cc1cc(C(=O)N/N=C/c2ccc(-c3cccc(Cl)c3Cl)o2)n[nH]1	0.3	46.4	138.9	7.5	i	0.94	101.4
COc1ccc(-n2c(Cc3cc(=O)[nH]c(=O)[nH]3)nnc2SCC(=O)Nc2ccccc2)cc1	-1.8	.	.	2.3	.	.	105.7
CCCn1nc(Oc2nc(NC(C)C)nc(N(C)C)n2)ccc1=O	.	-64.3	96.6	-2.3	i	0.86	100.5
Cc1cc2n(n1)C(c1ccc3c(c1)OCO3)Nc1c(C)cccc1-2 (stereo not drawn)	-2.9	.	.	11.2	i	0.97	87.8
Cc1cc(C(=O)COC(=O)C23CC4CC(CC(O)(C4)C2)C3)c(C)n1-c1c(C)n(C)n(-c2ccccc2)c1=O	.	.	.	-2.4	i	0.94	103.5
O=c1oc2ccccc2cc1-c1csc(NN=C2CCCC2)n1	-0.8	-20.7	106.6	3.4	i	0.96	99.8
CN(C)C(=O)c1ccc(Cl)cc1[N+](=O)[O-]	.	.	.	1.6	i	0.96	107.5
O=C(CSc1nc2ccccc2c(=O)n1CCCC(=O)N1CCCC1)NCc1ccco1	0.4	16.7	75.2	1.6	i	0.9	102.2
CCn1ncc(Br)c1C(=O)Nc1ncc(C)s1	.	16.7	64.9	16.6	i	1.03	63.6
CSc1cccc(NC(=S)N2CCC(N(C)C(C)C)CC2)c1	.	.	.	-6.4	i	0.97	105.8
COc1ccc(NS(=O)(=O)Cc2ccccc2Cl)cn1	-0.3	.	.	-0.1	i	1.05	78.0
COC(=O)[C@H](CCSC)NC(=O)Nc1ccc(OC)cc1OC	-2.2	64.3	135.6	-11.3	i	1.03	106.4
COCc1cc(C)nc(NC2CCCCC2)c1C#N	-0.9	27.6	62.3	-0.6	i	0.9	103.7
C=CCn1c(=O)/c(=C/c2ccc(C)o2)s/c1=C(/C#N)C(=O)c1ccccc1	-0.7	.	.	-2.6	i	1.3	92.6
C=CCNC(=O)C1CC(=O)N(c2ccc(OCC(=O)Nc3ccccc3)cc2)C1 (stereo not drawn)	-2.1	54.3	122.5	-2.6	i	1.07	65.0
CCOC(=O)c1c[nH]c2nc(C)ccc2c1=O	.	.	.	0.5	i	1.21	98.2
CN(C)c1ccc(P(=O)(COc2ccc([N+](=O)[O-])cc2)c2ccc(N(C)C)cc2)cc1	.	.	.	.	i	0.95	98.6
O=[N+]([O-])c1ccc(C[n+]2cccc3ccccc32)cc1	.	.	.	-5.1	i	1.06	106.9

Gathered by group, the compounds so far containing an NH in an aromatic ring (11)
SMILES	GALR2 agonist	INS promoter inh	INS promoter inh cell count	PKD1 inh	HSV replic up	HSV replic up primary fold	RGS16-Gao
CC(c1ccccc1)n1c(NCCCn2ccnc2)nc2c1c(=O)[nH]c(=O)n2C (stereo not drawn)	-1.4	5.7	102.4	6.9	i	0.9	110.9
Cc1cc(C(=O)CSc2nc3ccccc3[nH]2)c(C)n1C	-0.5	41.4	69.3	-0.2	i	1.01	97.2
O=C(Nc1ncn[nH]1)c1ccc(Cl)c(S(=O)(=O)Nc2ccc(Cl)cc2)c1	-0.7	-10.3	103.1	2.0	i	0.98	106.3
Cc1[nH]c(=O)[nH]c(=O)c1CSc1nnc(CCCCCNC(=O)OC(C)(C)C)o1	-0.8	-3.0	132.7	2.8	i	0.85	95.5
O=C(CCc1nc2ccccc2[nH]1)N1CCc2ccccc2C1	-0.7	-30.0	64.6	-8.9	.	.	136.1
Cc1cc(C)c2cc(CN(CCN3CCCC3)C(=O)Nc3ccc(F)cc3)c(=O)[nH]c2c1	-4.9	.	.	10.8	i	0.98	108.2
O=C(NCCc1c[nH]c2ccccc12)C(=O)NCC(c1ccco1)N1CCN(c2ccc(F)cc2)CC1 (stereo not drawn)	-1.4	6.5	137.0	-9.3	i	0.86	92.7
Nc1nc(Sc2ccc(C(F)(F)F)cc2[N+](=O)[O-])n[nH]1	-1.3	-25.7	102.8	11.9	i	0.99	89.9
Cc1cc(C(=O)N/N=C/c2ccc(-c3cccc(Cl)c3Cl)o2)n[nH]1	0.3	46.4	138.9	7.5	i	0.94	101.4
COc1ccc(-n2c(Cc3cc(=O)[nH]c(=O)[nH]3)nnc2SCC(=O)Nc2ccccc2)cc1	-1.8	.	.	2.3	.	.	105.7
CCOC(=O)c1c[nH]c2nc(C)ccc2c1=O	.	.	.	0.5	i	1.21	98.2
